# Assay outcomes as filed in PubChem.
# Bead autofluor: counter-screen for toxin protease inhibitors: compound fluorescence. fluorescence intensity (no concentration beside the values). hit rate 3.1% among 360,000. compound autofluorescence counterscreen, microsphere flow cytometry; stronger effect = higher value. AID 624483;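 active = at least 3 SD above the mean of all compounds, about 16000 in these data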;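 also: 100 nL of 1 mM stock went into each well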
# PrP 5UTR inh: suppresses PrP 5' UTR mRNA reporter expression | cell-based PrP 5' UTR mRNA reporter, plate reader | inhibition, % (test concentration not listed) | hit rate 0.35% among 340,000 | AID 488862;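 active = every replicate at 50% or more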;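 also: 0 = median of the neutral control wells; tested in H4 reporter cells; numbers are from one replicate; inactives centre near -14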
# Numbers without * were called inactive. These rows are one share of the data; count on the stated rates, not on these rows.
compound | Bead autofluor | PrP 5UTR inh
C#CCOCCOCCOCCNc1nc(N2CCN(C(=O)[C@H]([C@@H](C)O)n3cc(CCCCN)nn3)CC2)nc(N2CCN(C(=O)[C@H](CCCCN)n3cc(CCCC)nn3)CC2)n1 | 3576 | 0
COc1ccc2c(c1)[C@@]13CCC=C[C@H]1[C@@H](C2)NCC3 | 6194 | -6
COc1cc(OC)cc(C(=O)N2CCN(C3CCC(C)CC3)CC2)c1 (stereo unspecified) | 4576 | -7
CC(C)(C)C1CCC(CN2CCC(CN3C(=O)C(=O)NC[C@@H]3Cc3ccccc3)CC2)CC1 (stereo partly specified) | 5044 | -20
O=C1NCCOC(=O)[C@@H](Cc2ccc(F)cc2)CC/C=C/C[C@@H]1CC(=O)N(CCO)Cc1ccccc1 | 2857 | -8
CC(=NNc1nc2ccccc2o1)c1ncccn1 | 4331 | -6
COC(=O)C1=C(c2ccc(OC)c(OC)c2)C[C@@H]2CC[C@H]1N2C(=O)NCCOc1ccc(OC)cc1 | 3636 | -16
COC(=O)/C=C/c1ccccc1CN1[C@@H](CC(=O)OC)c2ccccc2S1(=O)=O | 3724 | -8
CNC(=S)NN=C(C)c1ccc(OC)cc1O | 3915 | -3
CC(C)C[C@H]1CN([C@@H](Cc2ccc(O)cc2)CN2CCC[C@@H]2CN2C(=O)C(=O)NC[C@@H]2Cc2ccccc2)C(=O)C(=O)N1CC1CCCCCC1 | 3073 | 5
Cc1ccc2c(O)c(Cc3ccccc3)c(=O)[nH]c2n1 | 3741 | -21
CCC(=O)OCC(=O)[C@@]1(OC(=O)CC)[C@@H](C)C[C@H]2[C@@H]3CCC4=CC(=O)C=C[C@]4(C)[C@@]3(Cl)[C@@H](O)C[C@@]21C | 6084 | 3

# Overlap with the part before: 5 entries; new compounds follow.
compound | Bead autofluor | PrP 5UTR inh
COC(=O)/C=C/c1ccccc1CN1[C@@H](CC(=O)OC)c2ccccc2S1(=O)=O | 3724 | -8
CNC(=S)NN=C(C)c1ccc(OC)cc1O | 3915 | -3
CC(C)C[C@H]1CN([C@@H](Cc2ccc(O)cc2)CN2CCC[C@@H]2CN2C(=O)C(=O)NC[C@@H]2Cc2ccccc2)C(=O)C(=O)N1CC1CCCCCC1 | 3073 | 5
Cc1ccc2c(O)c(Cc3ccccc3)c(=O)[nH]c2n1 | 3741 | -21
CCC(=O)OCC(=O)[C@@]1(OC(=O)CC)[C@@H](C)C[C@H]2[C@@H]3CCC4=CC(=O)C=C[C@]4(C)[C@@]3(Cl)[C@@H](O)C[C@@]21C | 6084 | 3
COC(=O)C1=C(c2ccccc2OCc2ccccc2)C[C@@H]2CC[C@H]1N2C(=O)NCc1ccc(C(C)(C)C)cc1 | 3672 | -12
COC1=C(C)C(=O)C2=C(C1=O)C(CO)N1C(C#N)C3CC4C(C1C2N1CCOC41)N3C (stereo unspecified) | 3006 | 76*
N#CC1c2ccccc2-n2nncc2CN1S(=O)(=O)c1ccccc1 (stereo unspecified) | 3057 | 3
COc1cccc(CNCc2cccc(OC)c2O)c1O | 3040 | -14
Cc1ccc(Cl)cc1C1=CC(=O)C[C@H](c2ccc(F)cc2)C1 | 3974 | -11
N#C[C@H](O[C@@H]1O[C@H](CO[C@@H]2O[C@H](CO)[C@@H](O)[C@H](O)[C@H]2O)[C@@H](O)[C@H](O)[C@H]1O)c1ccccc1 | 4050 | -1
O=S1(=O)c2c(Oc3cccc4ccccc34)cccc2OC(COCc2ccccc2)CN1C1CCCC1 (stereo unspecified) | 4108 | -18
CCOC(=O)[C@H]1[C@H]2COc3ccc(Cl)cc3[C@@H]2N2C(=O)c3cc(OC)ccc3NC(=O)[C@@]12C | 3071 | -13
Cc1ccccc1Oc1ccc2c(c1)[C@@H]1C[C@H](N(C)C(=O)Nc3cc(Cl)cc(Cl)c3)[C@H]([C@H](C)O)C(=O)N1CC2 | 3005 | -1
CC(C)(C)[C@H]1COC(=O)[C@H](Cc2ccc(F)cc2)CC/C=C/C[C@@H](CC(=O)N[C@H](CO)Cc2ccccc2)C(=O)N1 | 4157 | -17
O=C1NC[C@H](Cc2ccccc2)N(C[C@H]2CCCN2C[C@H](Cc2ccccc2)N2C[C@H](Cc3ccccc3)N(CCc3ccccc3)C(=O)C2=O)C1=O | 5086 | -7
COc1ccc([C@H]2CC(=O)C=C(c3ccc(C)c(F)c3)C2)cc1 | 4065 | -20
C[C@]12CCC3C(CC[C@H]4C[C@@H](O)CC[C@]34C)C1CCC2=O (stereo partly specified) | 3707 | -51
Cc1ccc(CNCCCn2cnc3c(OCc4ccccc4)ncnc32)o1 | 3705 | -17
CCC(C)[C@H](NS(=O)(=O)c1ccc(F)cc1Br)C(=O)OC (stereo partly specified) | 3661 | -34
COc1ccccc1N1CCN(CCCCN2C(=O)C3CCCN3C2=O)CC1 (stereo unspecified) | 4194 | -21
C=CCSc1nc2sc3c(c2c(=O)[nH]1)CC(C)(C)OC3 | 4807 | -9
CN(C)CCNc1oc(-c2ccccc2Cl)nc1S(=O)(=O)c1ccccc1 | 4067 | -8
C[C@H](NC(=O)c1nc[nH]c1C(=O)N1CCN(C(=O)OC(C)(C)C)CC1)C(=O)OC(C)(C)C | 4475 | -11
COc1ccc(OC)c(/C=C/c2ccnc3ccccc23)c1 | 3643 | -19
CC(C)(C)[C@@H]1COC(=O)[C@H](Cc2ccc(F)cc2)C/C=C\C[C@@H](CC(=O)NCCO)C(=O)N1 | 3846 | -12
CC(C)C[C@@H](CN)NC(=O)c1nc[nH]c1C(=O)N[C@@H](CC(C)C)C(=O)CNC[C@H](C)NC(=O)c1nc[nH]c1C(=O)N[C@@H](C)C(=O)O | 3780 | -14
O=c1c2cc(F)ccc2sn1-c1ccc(F)cc1 | 2838 | -13
COc1ccc(C2=NOC(Cn3nc(-c4ccccc4)cc3C(=O)NCc3cccc(Br)c3)C2)cc1 (stereo unspecified) | 3688 | -14
CO[C@@]12[C@@H]3N[C@@H]3CN1C1=C(C(=O)C(N)=C(C)C1=O)[C@@H]2COC(N)=O | 3610 | -5
C[C@H]1[C@@H](c2ccccc2)Oc2ccc(Cl)cc2S(=O)(=O)N1Cc1ccc(F)cc1F | 3841 | -21
CCN1C(=NCCOC)N[C@@H](c2cccc(C(F)(F)F)c2)C(C(=O)OC)=C1C | 4077 | -29
CC(C)(C)OC(=O)C[C@@H]1C/C=C\C[C@H](CC(=O)N(CCO)Cc2ccccc2)C(=O)N[C@@H](Cc2ccccc2)COC1=O | 3940 | -15
Nc1ccc2c(c1)Cc1cc(N)c(Cl)cc1-2 | 2810 | -38
C[C@H](NC(=O)c1nc[nH]c1C(=O)N[C@@H](CCCCN)C(=O)OC(C)(C)C)C(=O)OCc1ccccc1 | 3518 | -1
CN1OC[C@@H]2CN(Cc3cc(Cl)cc(Cl)c3)[C@H](c3cccc(Oc4ccccc4)c3)C[C@@H]21 | 3868 | -18
NC(=O)c1ccsc1NC(=O)COC(=O)COc1ccccc1[N+](=O)[O-] | 3878 | 0
Cc1cc2ccccc2nc1-c1ccccc1F | 3453 | -22
CCCCCCCCNS(=O)(=O)CCNCCCC | 3799 | -3
CCCNC(=O)N1[C@H]2CC[C@@H]1C(C(=O)OC)=C(c1ccc(F)cc1F)C2 | 4292 | -10
COc1ccc(CNCCS(=O)(=O)NC2CCCCC2)cc1 | 4027 | -12

# Record cards, from the list above:
# CO[C@@]12[C@@H]3N[C@@H]3CN1C1=C(C(=O)C(N)=C(C)C1=O)[C@@H]2COC(N)=O is listed as Bead autofluor = 3610; PrP 5UTR inh = -5
# CCCCCCCCNS(=O)(=O)CCNCCCC is listed as Bead autofluor = 3799; PrP 5UTR inh = -3

# Later entries.
compound | Bead autofluor | PrP 5UTR inh
O=C(COC(=O)c1ccncc1)Nc1cccc2ccccc12 | 3897 | -7
Cc1cc(C(=O)O[C@H]2[C@H](C)NS(=O)(=O)[C@H]3C[C@@H]4C=C[C@]23O4)cc([N+](=O)[O-])c1 | 3490 | -14
CC(C)(C)OC(=O)C[C@@H]1C/C=C\C[C@@H](CC(=O)NCCO)C(=O)NCCOC1=O | 3023 | -10
C=CCC[C@H](Cc1ccc(F)cc1)C(=O)OC[C@H](C)NC(=O)[C@H](CC=C)CC(=O)N(CCO)Cc1ccccc1 | 3758 | 0
O=P(Cc1ccccc1)(Cc1ccccc1)c1ccccc1 | 2851 | -2
COc1ccc2cc(CO)n(C)c2c1 | 3511 | -32
Nc1cc2[nH]c(=O)c3ccccc3c2cc1[N+](=O)[O-] | 3736 | -8
CCOC(=O)CCCCCCCCC(=O)Nc1ccc(-n2[nH]c(=O)cc2C)cc1 | 2251 | 5
CC1CCCC=CC2CC(OC(=O)CN(C)C)CC2C(O)C=CC(=O)O1 (stereo unspecified) | 3537 | 81*
O=C(O)c1ccccc1C=NN=C1c2ccccc2-c2ccccc21 | 2792 | -5
Cc1cc(-c2ccccc2)n(-c2cc(N/N=C/c3ccccc3O)ncn2)n1 | 7414 | 76*
Cc1cn(CC(=O)NCC(C)c2ccccc2)c(=O)[nH]c1=O (stereo unspecified) | 3739 | -13
CCN(CC)CCCN=C1N[C@@H](c2cccc(F)c2)C(C(=O)OC)=C(C)N1Cc1ccccc1 | 2907 | -7
CCOP(=O)(CCP(=O)(OCC)OCC)OCC.C[CH2][Sn]([Cl])([Cl])[CH2]C | 3046 | 9
CC[C@]12C(=O)N(C)C[C@H]([C@@H]3C(=O)N(C)C(=O)[C@@H]31)N2C(=O)c1ccc(F)cc1 | 4075 | -10
CC(=O)C[C@H](O)CC(=O)[C@H]1OC(=O)[C@H](C)C/C=C\Cc2ccccc21 | 3972 | -4
CC(=O)NS(=O)(=O)c1ccc(NC(=O)C(C)NS(=O)(=O)/C=C/c2ccccc2)cc1 (stereo unspecified) | 3567 | -25
OCC[C@H]1C[C@@H](O)[C@H](O)[C@]2(OCCCc3ccccc32)O1 | 3898 | -20
CC(C)(C)OC(=O)N(Cc1ccccc1)Cc1ccccc1OCc1ccc(NC(=O)C2CCC2)cc1 | 3840 | -16
O=C(Cc1ccccc1[N+](=O)[O-])NCC(O)c1ccc2c(c1)OCO2 (stereo unspecified) | 2769 | -19
CCOc1ccc(/C=N/NC(=O)C2CC2)c(OCC)c1 | 5215 | -7
C[S+](CC[C@H](N)C(=O)O)C[C@H]1O[C@@H](n2cnc3c(N)ncnc32)[C@H](O)[C@@H]1O (stereo partly specified) | 5954 | 0
O=C(NNC(=O)c1cc(Br)ccc1O)c1csc(N2CCOCC2)n1 | 1972 | -8
CN(Cc1cnc2nc(N)nc(N)c2n1)c1ccc(C(=O)NC(CCC(=O)O)C(=O)O)c2ccccc12 (stereo unspecified) | 2946 | -16
CCOC(=O)[C@@H]1[C@H]2COc3ccccc3[C@@H]2N2C(=O)N(c3cccc(F)c3)C(=O)[C@@]12C | 3086 | -8
CC1CC(C)(C)CC2(C1)NC(=O)N(CC(=O)N1CCN(S(=O)(=O)c3cccc(Cl)c3Cl)CC1)C2=O (stereo unspecified) | 3499 | -7
COC(=O)C1=C(c2ccc(OC(F)(F)F)cc2)C[C@@H]2CC[C@H]1N2C(=O)NCCOc1ccc(OC)cc1 | 3445 | -8
CC1=C/C(=N\OS(=O)(=O)c2ccccc2)C(C)=CC1=O | 3693 | -26
O=C(N/C(=N\O)c1ccccc1)Nc1ccc(Cl)cc1 | 2747 | -23
Cc1ccc2c(c1)[C@H]1[C@H](CO2)[C@H](c2ccccc2)[C@]2(C)C(=O)N(Cc3ccccc3)CC(=O)N12 | 4001 | -20
CCOC(=O)/C=C/[C@H]1CCc2cccc(Cl)c2O1 | 2947 | -8
CCOC(=O)n1cnc2nc(N)nc(SC)c21 | 4085 | -11
COC(=O)N[C@@H]1C[C@H]2[C@@H]3CC[C@H]4C[C@@H](OC)CC[C@]4(C)[C@H]3CC[C@@]12C | 3517 | -12
COc1cccc(-c2sc3ccccc3c2-c2ccc(OCCN(C)C)cc2)c1 | 3704 | -32
O=C(/C=C/c1ccc(Cl)cc1)OCC(=O)c1ccc[nH]1 | 3991 | -23
CC(=O)NC(CC(C)C)C(=O)NC(Cc1ccccc1)C(=O)CCl (stereo unspecified) | 3375 | -16
CCOC(=O)CCCCC1C(CCCC(=O)OCC)C=NN1C (stereo unspecified) | 4595 | -5
Cc1cc(=O)c2c(o1)C(=O)c1occc1C2=O | 4006 | -14
C[C@H](CO)N1C[C@H](C)[C@@H](CN(C)C(=O)Nc2ccc(C(F)(F)F)cc2)Oc2c(NC(=O)Nc3ccc4c(c3)OCO4)cccc2C1=O | 3676 | 23
O=C(N/N=C/c1cccc(O)c1)c1ccc(-n2cnnn2)cc1 | 5728 | -12
CO[C@H]1C=C2CCN(C)[C@H]2C2c3cc4c(cc3C(=O)O[C@@H]21)OCO4 (stereo partly specified) | 5621 | -2
CCC(=O)c1ccc(OC)c(OC)c1OCc1ccccc1 | 2975 | -15
C=CCN1C=CC(=O)[C@@H](O)[C@H]1c1ccccc1Br | 3345 | -23
C[C@]12c3[nH]c4ccccc4c3CCN1C(=O)C(CC(=O)NCc1ccco1)C[C@@H]2C(=O)N1CCOCC1 (stereo partly specified) | 3624 | 6
O=C1C(F)=CC(COC(c2ccccc2)(c2ccccc2)c2ccccc2)OC1n1cc(F)c(=O)[nH]c1=O (stereo unspecified) | 3239 | -15
O=C(C[C@@H]1C/C=C\C[C@H](Cc2ccc(F)cc2)C(=O)OC[C@@H]2CCCN2C1=O)N[C@H](CO)Cc1ccccc1 | 2775 | -28
COc1ccc(C2c3cc4c(cc3OC(N3CCOCC3)C2C)OCO4)c(OC)c1 (stereo unspecified) | 3639 | -10
COc1cccc(CC(O)CC2c3c(cc4c(c3OC)OCO4)CCN2C)c1 (stereo unspecified) | 4168 | -17
C=CC[C@@H](CC(=O)N[C@H](CO)Cc1ccccc1)C(=O)N[C@H](C)COC(=O)[C@@H](CC=C)CC(=O)OC(C)(C)C | 3633 | -24
Cc1cc(C2CCCCC2)n(O)c(=O)c1 | 5863 | 69*
O=S(=O)(Nc1cccc(S(=O)(=O)N2CCCCC2)c1)c1ccc(Cl)s1 | 5365 | -2
O=C(NC1CCCCC1)c1csnn1 | 3638 | 84*
C=CC[C@@H](Cc1ccc(F)cc1)C(=O)OC[C@@H]1CCCN1C(=O)[C@@H](CC=C)CC(=O)N(CCO)Cc1ccccc1 | 4275 | -27
